Source: PubChem
PrP UTR inh = suppresses PrP 5' UTR mRNA reporter expression; cell-based PrP 5' UTR mRNA reporter, plate reader; inhibition, % (no concentration beside the values); actives 0.35% (n = 340,000); AID 488862;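 active means every replicate at 50% or more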;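 further: 0 = median of the neutral control wells; tested in H4 reporter cells; numbers are from one replicate; inactives centre near -14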
Sa RN4220 lethal = kills Staphylococcus aureus RN4220; S. aureus RN4220 growth, OD600, 16 h; inhibition, % (concentration not given with the values); actives 0.33% (n = 330,000);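 active means z-score of -3 or lower and OD600 up to 0.18 on both plates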;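 further: plate controls were untreated cells for no effect and reference antibiotic for full effect; stock transfer was 100 nL into about 80 µL; one replicate is shown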
ugtP null kill = compounds lethal to S. aureus RN4220 ugtP deletion mutant | OD600 growth, 16 h; some inactives read as strong as hits | actives 0.54% (n = 330,000) | growth inhibition, % (test concentration not listed);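 active means z-score under -3 and OD600 up to 0.15 on both plates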;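 further: plate controls were untreated wells for no effect and antibiotic for full effect; wells of about 80 µL received 100 nL stock; the first replicate is given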
Autofluor counter = counter-screen for toxin protease inhibitors: compound fluorescence; actives 3.1% (n = 360,000); fluorescence intensity (test concentration not listed); compound autofluorescence counterscreen, microsphere flow cytometry; hits give high values;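 active means at least 3 SD above the mean of all compounds, about 16000 in these data; inconclusive means too few beads counted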;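 further: 100 nL of 1 mM stock went into each well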
Mtb hypoxia inh = reduces hypoxia-regulated biosensor signal in M. tuberculosis; fluorescence inhibition, % (no concentration beside the values); actives 0.1% (n = 300,000); AID 1159583; M. tuberculosis hypoxia-regulated fluorescent reporter, fluorescence;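 active means 35 to 45% if threefold the growth effect, above 45% if 1.5-fold the growth effect; inactive means the rest, general growth blockers included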;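 further: wells of about 50 µL received 100 nL stock; 0% = vehicle wells and 100% = reference inhibitor wells; whole bacteria with a GFP reporter of the hypoxia response; strong numbers were not always called active; many hits fall short of the cut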
BJeLR lethal = kills HRASV12-expressing BJeLR cells. BJeLR (HRASV12) viability, CellTiter-Glo ATP luminescence, 48 h; reference of the scale not given here. inhibition, % (test concentration not listed). actives 0.17% (n = 300,000);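 active means replicate mean above 50%; inconclusive means above 50% but judged a plate artefact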;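 further: 50 nL library stock added to about 25 µL; numbers are from one replicate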
Mtb hypoxia inh growth = also measured in Mtb hypoxia inh; calls as there; growth inhibition, %; measured here: M. tuberculosis growth (absorbance);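 0% = vehicle and 100% = reference antibiotic; read after six days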
Starred values were filed as active, the others as inactive; ? = inconclusive; . = no result given.

Start of the data: the first 3 entries, ahead of the listing:
SMILES	PrP UTR inh	Sa RN4220 lethal	ugtP null kill	Autofluor counter	Mtb hypoxia inh	Mtb hypoxia inh growth	BJeLR lethal
CC(=O)c1c(C)[nH]c(C2=NNC(=NC(C)(C)C)SC2)c1C	-58	6.3	10	2479	7	-4	-18
Cc1ccc(NC(=O)COC(=O)C2CCN(c3ccc(C(F)(F)F)cn3)CC2)cc1	.	3.7	3	?	9	10	.
COc1cc(C(=O)NC(=S)N(CCc2ccccc2)CCc2ccccc2)cc(OC)c1OC	3	4.0	14	2391	15	3	-4

The listing, from the first entry:
SMILES	PrP UTR inh	Sa RN4220 lethal	ugtP null kill	Autofluor counter	Mtb hypoxia inh	Mtb hypoxia inh growth	BJeLR lethal
CC(=O)c1c(C)[nH]c(C2=NNC(=NC(C)(C)C)SC2)c1C	-58	6.3	10	2479	7	-4	-18
Cc1ccc(NC(=O)COC(=O)C2CCN(c3ccc(C(F)(F)F)cn3)CC2)cc1	.	3.7	3	?	9	10	.
COc1cc(C(=O)NC(=S)N(CCc2ccccc2)CCc2ccccc2)cc(OC)c1OC	3	4.0	14	2391	15	3	-4
CN1N=C2c3ccccc3CCC2C1c1ccc(C(F)(F)F)cc1 (stereo not given)	.	2.9	7	.	6	1	-3
Cc1cccc(Cn2c(SCC(=O)Nc3ccccc3)nc3c2c(=O)[nH]c(=O)n3C)c1	-13	6.2	6	6900	-2	-2	16
Cc1cccnc1NC(=O)C1COc2ccccc2O1 (stereo not given)	-23	0.0	-14	4293	-1	2	13
CCOc1cc(C=O)c(Br)cc1OC1CCCC1	-2	-9.0	87*	?	.	.	1
Cc1ccccc1OCC(=O)OCC(=O)c1cc(C)n(C2CC2)c1C	-12	2.9	12	6037	7	6	.
O=C(c1ccco1)N1CCN(c2nc3ccccc3c(=O)n2-c2ccccc2)CC1	-1	-5.3	-10	5726	-14	-7	1
O=C(OCCN1C(=O)c2ccccc2C1=O)c1ccc(S(=O)(=O)N2CCCCCC2)cc1	-6	3.3	3	3255	5	4	-7
CCN(CC)C1CCCCC1NS(=O)(=O)c1ccc(Cl)cc1 (stereo not given)	80*	3.2	6	5178	8	2	3
O=C(NC1CCN(Cc2ccccc2)CC1)c1cccc(S(=O)(=O)Nc2cc(C(F)(F)F)ccc2Cl)c1	-4	-1.6	-1	2033	-3	1	-4
CCC(=NCc1cc(OC)cc(OC)c1)c1c(O)n(C)c(=O)n(C)c1=O	-7	6.5	-1	24024*	11	-3	14
COc1cc(C(=O)NNC(=O)C2CCCC2)cc(OC)c1OC	-11	-0.3	5	6131	1	8	-10
CCOc1ccc(-c2[nH]ncc2Oc2ccccc2OC)c(O)c1	-1	-3.4	-11	3572	4	-2	-5
CCOC(=O)C1C(C)=C(Nc2ccc(OC)cc2)C(=O)N1c1ccc(OC)cc1 (stereo not given)	-9	4.3	3	2129	1	5	-2
CC(O)c1nc2ccccc2n1CC(=O)Nc1ccc(F)cc1Cl (stereo not given)	-44	0.5	-5	4364	1	-1	8
C/C(CC(=O)Nc1ccc2c(c1)OCCO2)=N\NC(=O)c1ccccc1Cl	-17	.	.	2886	.	.	-2
O=C(O)CC(NNC(=O)c1ccccc1)C(=O)Nc1ccc([N+](=O)[O-])cc1 (stereo not given)	2	2.5	5	4490	-1	10	2
CCOc1cc(C=NNC(=O)c2cc(-c3cccc(OC)c3)nc3ccccc23)ccc1O	.	-0.9	0	.	15	11	.
COCCNC(=O)C1(C)C=CC2(CCCCC2)N1C(=O)c1ccccc1 (stereo not given)	-22	-1.5	-4	3820	1	1	-5
Cc1cc(OCC(=O)C(C)(C)C)c2c(C)c(C)c(=O)oc2c1	-6	-2.4	-1	3292	-1	4	-7
Cn1c(=O)c2c(nc(SCC(=O)NC3CCCC3)n2C)n(C)c1=O	-11	0.5	6	3790	16	2	-8
Cc1cccc(C2c3[nH]c4ccccc4c3CCN2C(=O)c2cc(CC(C)C)[nH]c(=O)n2)n1 (stereo not given)	-24	4.0	3	3290	10	0	-6
O=c1oc2ccccc2cc1-c1nc2c(s1)CCCC2	10	12	-11	23234*	-4	0	23
O=C(CN1C(=O)NC2(CCCC2)C1=O)Nc1ccc(F)c([N+](=O)[O-])c1	-10	-6.6	-3	4039	-3	-6	1
CCCc1cc(=O)[nH]c(SCC(=O)N2c3ccccc3CC2C)n1 (stereo not given)	-11	3.3	4	8651	-1	1	.
CC(=O)C1=NOC2C(=O)N(c3ccc(Cl)cc3)C(=O)C12 (stereo not given)	-9	2.1	-3	3663	14	15	1
CNS(=O)(=O)c1cnccc1N1CCN(c2cccc(Cl)c2)CC1	0	1.8	6	2586	.	.	-3
Cc1cccc(-n2c(-c3csc(C)c3)n[nH]c2=S)c1	-49	1.3	0	16396*	7	-1	-11
CCC(C)(C)NC(=O)/C=C/c1cccs1	-25	8.6	6	2135	.	.	0
Cc1[nH]c2ccc(S(N)(=O)=O)cc2c1C	-10	4.5	13	3532	15	5	-11
Cc1noc(C)c1NC(=O)N(C)C[C@H]1Oc2c(NC(=O)C3CC3)cccc2C(=O)N([C@H](C)CO)C[C@@H]1C	-12	-14	-4	3958	8	3	.
COc1ccc(-c2cc(C(=O)N3CCCCCC3)no2)cc1OC	-58	4.2	1	3066	6	0	-10
CCn1ncc(Br)c1C(=O)Nc1ccc(-c2ccno2)cc1	-16	4.5	0	6220	3	2	0
COc1cc(C(=O)NCC(c2ccc(F)cc2)N2CCOCC2)ccc1OCc1ccccc1Cl (stereo not given)	-15	4.0	0	6076	8	-3	-2
COc1ccc(OC)c(CCNC(=O)c2nn(C)c3c2CS(=O)(=O)c2ccccc2-3)c1	-1	2.7	3	4208	2	8	-2
CCOc1ccc(C(=O)NCC(=O)OCC(=O)c2ccc3c(c2)-c2ccccc2C3)cc1	-15	9.7	10	2793	3	1	0
CC1CCc2cccc3c2N1c1cc(C#N)c(C#N)cc1O3 (stereo not given)	-11	3.9	-27	23863*	11	2	-3
Cc1nnsc1Sc1ccccc1	-23	0.5	-7	2208	-4	15	2
O=c1c(C(c2ccc(O)cc2)c2c(O)nc3n(c2=O)CCCS3)c(O)nc2n1CCCS2	-17	.	.	3173	.	.	2
COC(=O)c1nn(-c2ccccc2)c(Cl)c1C=NOC(=O)c1ccc(Cl)c(Cl)c1	.	4.4	-5	.	8	-3	.
O=C(O)CSc1cn(Cc2ccccc2)c2ccccc12	3	15	-4	3882	6	-4	0
Cc1ccc(O)c(NC(=O)CCC2CCCCC2)c1	-96	3.8	3	3254	9	15	-4
Cc1c(C(=O)N2CCN(Cc3ccc4c(c3)OCO4)CC2)cccc1[N+](=O)[O-]	-13	3.5	7	2534	10	11	2
COc1ccc(/C=C/C(=O)O)cc1S(=O)(=O)NCc1ccco1	-8	6.9	3	4395	5	-3	-7
O=C(/C=C/c1cccc(Cl)c1)OCc1cn2cc(Cl)ccc2n1	-24	.	.	2142	.	.	-16
CCC(c1nnnn1CC1CCCO1)N(CCN1CCOCC1)Cc1cc2cc(C)ccc2[nH]c1=O (stereo not given)	5	1.6	6	2303	.	.	.
N#Cc1cc2c(nc1SCC(=O)NCc1ccc3c(c1)OCO3)CCCCC2	-21	4.0	-2	18758*	2	2	-6
O=C(c1cc(COc2c(F)cccc2F)on1)N1CCCCCC1	-24	2.2	6	4504	2	-8	2
CC[C@@]1(O)C(=O)OCc2c1cc1n(c2=O)Cc2cc3c(CN(C)C)c(O)ccc3nc2-1	44	5.4	-1	4502	6	2	85*
O=C(Nc1cccc(O)c1)C(Cc1ccccc1)N1C(=O)c2cccc3cccc(c23)C1=O (stereo not given)	5	6.8	-12	2028	0	-3	-9
COCC(=O)N1CCC(Oc2ccc(C(=O)N3CCCCCC3)cc2)CC1	0	4.3	2	5889	1	5	0
COC(=O)c1sccc1NC(=O)COc1ccc(Cl)cc1Cl	-46	5.9	4	2438	14	2	-5
CCN(CC)c1nc(N2CCOCC2)c(C#N)c2c1CN(C)CC2	-9	5.6	-1	2851	10	8	7
COc1cc(/C=C(/NC(=O)c2ccccc2)C(=O)N2CCN(C)CC2)c([N+](=O)[O-])cc1OC	-23	2.6	9	2217	5	8	6
Cc1ccc2[nH]c3c(=O)n(CCc4cnc[nH]4)cnc3c2c1	-26	-6.9	-6	3349	6	0	3
CN(Cc1nc2ccccc2c(=O)[nH]1)C(=O)c1cccc(S(=O)(=O)N2CCCC2)c1	.	7.5	2	5846	7	4	.
NNC(=O)c1ccc(CN2C(=O)c3cccc4cccc2c34)cc1	-37	8.0	1	5228	-5	3	-1
Cc1ccc(C)c(N2CCN(CCCNC(=O)Cn3cccc3C(=O)c3ccccc3)CC2)c1	-15	2.9	4	4601	0	7	12

In another format: 2 of the compounds above.
Every second line gives: PrP UTR inh	Sa RN4220 lethal	ugtP null kill	Autofluor counter	Mtb hypoxia inh	Mtb hypoxia inh growth	BJeLR lethal
Cc1ccc2[nH]c3c(=O)n(CCc4cnc[nH]4)cnc3c2c1
    -26	-6.9	-6	3349	6	0	3
CN(Cc1nc2ccccc2c(=O)[nH]1)C(=O)c1cccc(S(=O)(=O)N2CCCC2)c1
    .	7.5	2	5846	7	4	.

Continuation:
SMILES	PrP UTR inh	Sa RN4220 lethal	ugtP null kill	Autofluor counter	Mtb hypoxia inh	Mtb hypoxia inh growth	BJeLR lethal
OCCC#Cc1ccc(CN2CCN(Cc3ccccc3)C(CCO)C2)cc1 (stereo not given)	-25	4.9	12	4358	8	13	-3
CCCSc1ccc(-c2nn(-c3ccccc3)cc2/C=C(/C#N)C(=O)NCCCOC)cc1	-10	-4.5	-4	9409	2	-3	-5
CC(=O)c1cccc(S(=O)(=O)N2CCCC(c3nc(-c4ccc(C)o4)no3)C2)c1 (stereo not given)	-17	3.0	1	17085*	2	6	-7
COc1ccc2[nH]cc(S(=O)(=O)c3ccc(F)cc3)c(=O)c2c1	-43	-1.2	-14	5596	-7	2	-4
O=C(Cc1ccccc1[N+](=O)[O-])NN=Cc1cccnc1	.	4.6	9	.	2	-7	.
COc1ccc(CNC(=O)COC(=O)c2cccn2C)cc1	-16	-2.2	-5	2916	10	0	.
CN(CCC#N)C(=S)NC(=O)c1ccc(S(=O)(=O)N2CCOCC2)cc1	-10	6.3	9	3382	-1	-2	-2
O=C(CCC(=O)NC1CCN(Cc2ccccc2)CC1)NCc1ccco1	-11	4.2	0	23478*	6	3	-7
O=C(Cc1cccs1)Nc1nnc(-c2ccncc2)s1	-42	2.9	3	10701	4	-7	-5
COc1ccccc1C(=O)N/C(=C\c1cn(S(=O)(=O)N(C)C)c2ccccc12)C(=O)N1CCCC1	9	-2.5	0	5866	17	10	-1
COc1ccc(NC(=O)CN(C)C(=O)c2ccc3[nH]c4c(c3c2)CC(C)CC4)cc1 (stereo not given)	-20	1.3	8	4557	6	-4	1
COc1ccc(C2(c3ccc(OC)cc3)NC(=O)N(CC(=O)NC3CCS(=O)(=O)C3)C2=O)cc1 (stereo not given)	.	2.6	3	?	-2	6	.
Cc1cc(NC(=O)c2c(-c3c(Cl)cccc3Cl)noc2C)n(C)n1	-1	3.1	10	.	4	4	4
Cn1c(=O)n(C)c2cc(NC(=O)COc3ccc(F)cc3F)ccc21	-22	9.6	11	3802	1	15	2
Cc1nc2ccccc2cc1OCc1ccc(Cl)cc1	-27	21	-7	13194	23	15	10
Cc1ccc(-c2n[nH]c(=O)c3ccccc23)cc1S(=O)(=O)NCCO	-32	8.1	-9	5132	8	4	1
Cc1ccc(NC(=O)Nc2nnc(CSCCOc3ccc(Cl)cc3)s2)cc1	-13	-0.4	-5	2406	0	-13	3
Cc1ccc(SCC(=O)O/N=C(\N)c2ccncc2)cc1	-19	3.3	4	4752	8	15	0
CCN(CC)c1ccc(C=NNC(=O)Nc2ccccc2)cc1	.	1.3	-13	.	-13	11	.
O=C(Nc1nc(-c2cccs2)cs1)c1cccc(S(=O)(=O)N2CCCCC2)c1	-3	18	14	2840	.	.	4
O=C(ONC1=NCCCCC1)c1ccc(Cl)cc1	-11	2.4	-3	2151	.	.	-12
COc1ccc(C(=O)NCCc2nnc3ccc(SCC(=O)Nc4cc(C)on4)nn23)cc1	-17	7.3	7	5296	13	10	7
COCCNC(=O)c1ccc(CN2CCC(Cc3ccccc3)CC2)cc1	-13	-1.1	11	3194	12	5	-9
O=C(Nc1ccc(NC(=O)c2cccs2)cc1)c1ccc(Br)o1	-10	.	.	2366	.	.	-10
